Compound activity (PubChem BioAssay)
RGS16-Gao HTS – modulates binding between human RGS16 and Galphao | binding response (% of control), % at 10 µM | 0.38% of 220,000 active | O15492+P09471 | bead-based flow cytometry RGS16-Galphao binding, fluorescence; actives lie on both sides;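 active means below 25% or above 175%, edge rows of some plates excepted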;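 further: Galphao activated by GDP with aluminum fluoride before binding; 100% = wells without compound and 0% = beads without RGS; some results beyond the cut were filed as inactive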
Target sequence (O15492 whole entry, looked up): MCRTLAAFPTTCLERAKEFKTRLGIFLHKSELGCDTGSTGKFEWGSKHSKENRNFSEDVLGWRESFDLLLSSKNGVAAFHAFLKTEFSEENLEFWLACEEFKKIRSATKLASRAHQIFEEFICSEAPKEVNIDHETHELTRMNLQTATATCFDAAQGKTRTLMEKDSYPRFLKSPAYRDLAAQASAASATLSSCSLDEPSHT
Target sequence (P09471 whole entry, looked up): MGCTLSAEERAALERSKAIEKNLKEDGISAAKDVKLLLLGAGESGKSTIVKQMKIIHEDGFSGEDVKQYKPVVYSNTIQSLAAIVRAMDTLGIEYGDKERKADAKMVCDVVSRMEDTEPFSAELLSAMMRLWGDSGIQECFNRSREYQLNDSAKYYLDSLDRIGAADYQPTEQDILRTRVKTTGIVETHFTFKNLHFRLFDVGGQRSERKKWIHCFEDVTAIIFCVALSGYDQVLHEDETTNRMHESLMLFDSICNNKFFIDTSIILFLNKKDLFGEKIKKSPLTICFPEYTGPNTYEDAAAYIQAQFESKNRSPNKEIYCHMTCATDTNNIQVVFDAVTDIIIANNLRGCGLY
GALR2 ag – activates the human galanin receptor 2 | O43603 | GALR2-expressing cells, agonist activation read-out | activation, %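 (tested at 5 µM)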 | 0.48% of 140,000 active | AID 803;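 active means above mean plus 3 SD of all compounds, about 5% in these data, not always enough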;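 further: 0% = vehicle buffer wells and 100% = reference agonist at full effect; tested in CHO reporter cells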
Target sequence (O43603 whole entry, looked up): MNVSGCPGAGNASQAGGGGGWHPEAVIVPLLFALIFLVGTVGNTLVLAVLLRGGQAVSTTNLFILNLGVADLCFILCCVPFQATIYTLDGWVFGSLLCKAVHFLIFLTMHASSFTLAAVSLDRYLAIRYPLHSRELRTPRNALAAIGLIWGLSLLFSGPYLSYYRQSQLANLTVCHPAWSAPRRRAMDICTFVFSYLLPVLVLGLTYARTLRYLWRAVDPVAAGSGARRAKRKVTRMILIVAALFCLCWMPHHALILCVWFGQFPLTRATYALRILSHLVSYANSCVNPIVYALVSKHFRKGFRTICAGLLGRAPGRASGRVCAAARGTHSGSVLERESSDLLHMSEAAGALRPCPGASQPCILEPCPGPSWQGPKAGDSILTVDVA
HSV augment – HSV replication enhancement; HSV replication augmentation in cells, fold increase; 0.005% of 220,000 active; AID 1956; maximum fold increase;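 active means peak rise of 1.5-fold or more in the series; tested in PC3 cells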;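 further: first round at 10 µM; read as green reporter fluorescence; hits show the peak of a series up to 25 µM; 1 = signal of infected wells without compound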
PKD1 kinase inh – PKD1 (human) kinase inhibition. Q15139. PKD1 kinase fluorescence polarization assay. inhibition, %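 (about 10 µM by stock and volumes)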. 0.056% of 200,000 active. AID 797;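 active means inhibition of 50% or more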;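 further: controls were vehicle for no effect and a reference inhibitor for full effect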
INS promoter inh – TRM-6 insulin promoter activity inhibition; TRM-6 cells (human fetal islet line), insulin promoter-eGFP reporter, imaging; reporter expression induced with tamoxifen; inhibition, % at 2 µM; 0.9% of 130,000 active; AID 1273;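 active means inhibition above the mean plus 3 SD, with well images judged a real hit on visual review, cut at about 60% in these data, passing the limit was not always enough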
INS promoter inh cell count – further read-out of INS promoter inh, marked with its call; normalized cell count, %; measured here: cell count, toxicity; reference of the scale not given here;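 cells exposed to compound for 48 h; stained nuclei by imaging scaled within each plate; lower means fewer cells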
HSV augment primary fold – also measured in HSV augment; calls as there; fold increase; compound at 10 µM; measured here: primary screen fold increase 10 uM; tested in PC3 cells;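 GFP signal in the first replicate; 1 = infected wells without compound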
An asterisk follows results filed as active; i = inactive; nt = not tested or not shown. Random draw from the library. Share with any hit: about 1.1%.

SMILES	RGS16-Gao HTS	GALR2 ag	HSV augment	HSV augment primary fold	PKD1 kinase inh	INS promoter inh	INS promoter inh cell count
COC(=O)CC(NC(=O)c1cccs1)c1ccc(OC)c(OC)c1 (stereo unspecified)	98	nt	i	0.95	0	60	153
CCOC(=O)/C(C#N)=C/c1cn(CCC(=O)O)nc1-c1ccc(Br)cc1	97	nt	i	0.94	4	nt	nt
CN(C)CCCOC(=O)c1ccc(Br)cc1	100	-1.4	i	0.98	1	-8	81
COc1cccc(NC(=O)c2ccc3snnc3c2)c1	102	-3.0	i	0.99	-7	-81	142
CC1CCCN(Cc2nc3c(c(=O)n(C)c(=O)n3C)n2CCCc2ccccc2)C1 (stereo unspecified)	98	0.8	i	0.9	-5	-69	141
Cc1c(C#N)c(O)n(CCO)c(=O)c1N=Nc1ccc2c(c1)COC2=O	98	nt	i	0.68	nt	nt	nt
O=C(CSc1nnc(CNC(=O)c2c(F)cccc2Cl)o1)Nc1ccccc1	115	-1.9	nt	nt	-5	-25	85
Cc1nn(-c2cccc([N+](=O)[O-])c2)c(N)c1-c1ccccc1	103	nt	i	0.88	5	48	41
N#Cc1cc([N+](=O)[O-])ccc1N1CCCC1	113	0.2	nt	nt	-2	8	116
Cc1c(-c2ccccc2)oc2c(C(=O)N3CCN(c4ccc([N+](=O)[O-])cc4)CC3)cccc2c1=O	91	-0.5	i	0.88	2	nt	nt
C=CCNC(=O)C1CCN(c2nc(C)cc(-c3ccccc3)n2)CC1	103	-0.8	i	0.96	-4	49	121
O=C(NCCCn1ccnc1)c1nn2c(C(F)(F)F)cc(-c3ccccc3)nc2c1Cl	96	nt	i	0.83	4	nt	nt
COCCCNC(=O)c1cc(Sc2ccc(F)cc2)nc2ccccc12	99	0.3	i	0.99	0	-34	80
O=C(NCc1ccco1)c1ccc(N2CCCCC2)c([N+](=O)[O-])c1	102	0.1	i	0.81	-6	-41	96
COc1ccc(Br)cc1-c1noc(-c2ccccc2F)n1	103	-2.7	i	1.1	-1	-25	106
Cc1ccc(CNC(=O)c2cccnc2Cl)cc1	101	nt	i	0.98	-10	-13	148
O=C(O)/C=C\C(=O)Nc1cccc(NC(=O)c2ccccc2)c1	100	nt	i	0.91	0	nt	nt
Cc1ccc(NS(=O)(=O)c2cccc([N+](=O)[O-])c2)nc1	100	nt	i	0.96	0	nt	nt
CC(C)CC(=O)N1CCN(c2ccc([N+](=O)[O-])cc2Cl)CC1	89	-0.5	i	0.98	-8	19	87
CC(C)CC1=NN(C(=O)c2ccco2)C(O)(C(F)(F)F)C1 (stereo unspecified)	100	nt	i	0.91	0	nt	nt
COc1ccc(CN(CC(=O)NCC2CCCO2)C(=O)CCC(=O)Nc2cc(C)on2)cc1 (stereo unspecified)	89	-1.0	i	1	-4	58	111
CC(C)c1nc2sc3c(NCc4ccccc4)ncnc3c2c2c1COC(C)(C)C2	101	1.2	i	0.91	-7	-26	110
O=C1c2ccccc2S(=O)(=O)N1Cc1cc(=O)n2ccsc2n1	92	-0.5	i	1	-2	nt	nt
O=C1CC(/C=C/c2ccccc2)(C(=O)NC2CCCC2)N1c1ccc(S(=O)(=O)N2CCCC2)cc1 (stereo unspecified)	102	-1.4	i	0.99	7	39	105
CCC(=O)N1CCN(c2ccc(NC(=O)COc3ccccc3[N+](=O)[O-])cc2)CC1	106	nt	i	0.9	-3	nt	nt

Reformatted with two lines to a compound: two of the compounds above.
Order of values – RGS16-Gao HTS, GALR2 ag, HSV augment, HSV augment primary fold, PKD1 kinase inh, INS promoter inh, INS promoter inh cell count
CCOC(=O)/C(C#N)=C/c1cn(CCC(=O)O)nc1-c1ccc(Br)cc1
→ 97, nt, i, 0.94, 4, nt, nt
O=C(CSc1nnc(CNC(=O)c2c(F)cccc2Cl)o1)Nc1ccccc1
→ 115, -1.9, nt, nt, -5, -25, 85

Compound profiles, from the list above. Screens in order: RGS16-Gao HTS | GALR2 ag | HSV augment | HSV augment primary fold | PKD1 kinase inh | INS promoter inh | INS promoter inh cell count
Cc1ccc(NS(=O)(=O)c2cccc([N+](=O)[O-])c2)nc1 across the screens: 100 | nt | i | 0.96 | 0 | nt | nt
COc1ccc(CN(CC(=O)NCC2CCCO2)C(=O)CCC(=O)Nc2cc(C)on2)cc1 (stereo unspecified) across the screens: 89 | -1.0 | i | 1 | -4 | 58 | 111

Next part.
SMILES	RGS16-Gao HTS	GALR2 ag	HSV augment	HSV augment primary fold	PKD1 kinase inh	INS promoter inh	INS promoter inh cell count
CCOc1ccc(N(CC(=O)Nc2ccc(C)c(C)c2)S(=O)(=O)c2c(C)[nH]c(=O)[nH]c2=O)cc1	101	nt	i	1	nt	nt	nt
CCCC(=O)NCCc1nc2ccccc2n1CC(=O)c1ccccc1	99	-0.9	i	1.1	-6	nt	nt
Cc1ccc2n(n1)c(=O)c(Cc1ccccc1)c([O-])[n+]2-c1ccccc1	103	-0.9	i	0.98	-7	-3	74
OCC1(Cc2ccccc2)CCN(C2CCN(c3ccc(F)c(F)c3)CC2)CC1	100	nt	i	0.88	-3	-47	86
COc1ccc(/C=C/CN2CCC(CO)(Cc3ccccc3Cl)CC2)cc1	110	nt	i	0.8	-3	-13	92
NNC(=O)c1[nH]c2ccc(Cl)cc2c1-c1ccccc1	104	nt	i	0.76	nt	nt	nt
CCCCc1ccc(S(=O)(=O)Nc2cc(C)on2)cc1	103	-0.4	i	0.9	1	-25	116
CC(C)Cc1nc2sc3c(SCC(N)=O)ncnc3c2c2c1CCC2	115	nt	i	0.91	nt	nt	nt
CNC(=O)c1sc(-c2ccc(Cl)cc2)nc1C	99	-1.7	i	0.95	-2	nt	nt
CC(=O)N1C=Cc2c(c(C)c3c([nH]c4ccccc43)c2C)C1	102	nt	i	0.81	nt	nt	nt
O=C(c1ccc2c(c1)OCCCO2)N1CCCCC1	100	nt	i	0.95	nt	nt	nt
O=C(CCn1c(=O)c2ccccc2n(CC(=O)NC2CCCC2)c1=O)NCCc1ccc(Cl)cc1	96	-1.4	i	0.96	-10	-43	93
O=C(c1ccc(C(=O)N2CCCc3ccccc32)s1)N1CCCc2ccccc21	103	0.4	i	0.88	-7	-53	96
COc1ccc(CN(C(=O)c2cc(=O)c3cc(C)cc(C)c3o2)C2CCS(=O)(=O)C2)cc1 (stereo unspecified)	117	nt	i	0.97	nt	nt	nt
O=C1c2[nH]nc(-c3ccccc3O)c2C(c2ccc(F)cc2)N1CC1CCCO1 (stereo unspecified)	97	-4.8	i	0.8	-13	nt	nt
NC(=O)c1ccccc1NC(=O)/C=C/C(=O)O	91	0.0	i	0.94	0	17	120
C=CCNC(=S)N1CCN(c2cccc(C(F)(F)F)c2)CC1	120	-0.9	i	1.1	2	-203	39
COc1ccccc1-c1csc(Cc2nnc3n2CCCCC3)n1	124	-2.1	i	0.9	0	5	98
O=C(Cc1ccc(S(=O)(=O)N2CCCCC2)s1)Nc1cccc2ccccc12	101	-1.0	nt	nt	-8	-69	94
O=C(Nc1c(Cl)cccc1Cl)c1cc(=O)n(Cc2ccccc2)c(=O)[nH]1	100	-1.2	i	0.92	5	14	141
Cc1cccc2c(=O)c(C(=O)NCc3cccs3)c[nH]c12	nt	0.7	i	0.68	2	44	125
OCCCNCc1cccc2ccccc12	116	-1.2	i	0.93	3	nt	nt
O=C(O)c1cc(Sc2ccc(Br)cc2)nc2ccccc12	100	nt	i	1.1	-8	nt	nt
C(=N\n1cnnc1)/c1ccc2c(c1)OCCO2	103	-1.4	i	0.77	-19	47	117
CN(Cc1ccncc1)C1CC(=O)N(c2ccc(Cl)cc2)C1=O (stereo unspecified)	89	-1.2	i	0.84	-3	24	84

Later entries.
SMILES	RGS16-Gao HTS	GALR2 ag	HSV augment	HSV augment primary fold	PKD1 kinase inh	INS promoter inh	INS promoter inh cell count
OCCOCCNc1ncnc2nc[nH]c12	104	-0.8	i	1.1	-8	nt	nt
CC(=O)c1cccc(NC(=O)CCS(=O)(=O)c2cccc3nonc23)c1	103	-1.6	i	0.91	2	nt	nt
Cc1ccccc1-c1ccc(C(=O)NCc2ccccc2)o1	101	-0.7	i	1.1	-8	0	121
Cc1cccc(NS(=O)(=O)c2ccc3c(c2)OCCO3)c1	97	-2.1	i	0.83	-9	7	116
Cc1cccc(-c2nc(CS(=O)CC(=O)NCC3CCCO3)c(C)o2)c1 (stereo unspecified)	101	-2.0	i	0.86	-2	nt	nt
COc1ccc(CCNC(=O)CS(=O)(=O)c2cn(CC(=O)N3CCCC3)c3ccccc23)cc1OC	97	nt	i	1	-5	-61	90
CCn1c(C)c(C(C)=O)c(N2CCN(C(c3ccccc3)c3ccccc3)CC2)nc1=S	99	nt	i	1.2	-3	-25	116
Cc1cccc(N2C(=O)c3cccc4c(N(C)CCO)ccc(c34)C2=O)c1	102	-2.0	nt	nt	5	nt	nt
O=c1oc2ccc(Cl)cc2cc1-c1nnc(Nc2cccc(C(F)(F)F)c2)s1	102	-0.2	nt	nt	-3	-30	147
CC(C)c1ccc(CNc2c([N+](=O)[O-])c(=O)oc3ccccc23)cc1	102	nt	i	1.1	2	-22	151
COc1ccc(NC(=O)COC(=O)CCNS(=O)(=O)c2ccc(Cl)cc2)cc1	100	nt	i	0.89	nt	nt	nt
Cc1ccc2[nH]c3c(c2c1)CCN1C(=O)OC(C)(C)C31C (stereo unspecified)	105	nt	i	0.97	-8	nt	nt
N#CC1=C(N)SC(N)=C(C#N)C1c1ccoc1	105	-1.4	i	1.3	6	0	133
CC(=O)N1CCN(S(=O)(=O)c2ccccc2)C1c1ccccc1 (stereo unspecified)	105	-2.7	i	0.91	2	-24	108
COc1ccc(NC(=O)c2ccc(C#CC(C)(C)O)cc2)cc1	99	-1.5	i	1	-8	nt	nt
Cn1c(C(=O)O)c(CC(=O)NCC2COc3ccccc3O2)c2ccccc21 (stereo unspecified)	82	-1.1	i	0.9	-18	nt	nt
O=C(CSc1ccc2c(c1)OCCO2)NCCc1ccc(Cl)cc1Cl	70	-1.5	i	1.2	-1	nt	nt
CCCCOC(=O)C1C2C=CC3(CN(CCc4ccccc4)C(=O)C13)O2 (stereo unspecified)	101	0.5	i	0.8	5	nt	nt

Compounds above with four or more nitrogen atoms:
SMILES	RGS16-Gao HTS	GALR2 ag	HSV augment	HSV augment primary fold	PKD1 kinase inh	INS promoter inh	INS promoter inh cell count
CC1CCCN(Cc2nc3c(c(=O)n(C)c(=O)n3C)n2CCCc2ccccc2)C1 (stereo unspecified)	98	0.8	i	0.9	-5	-69	141
Cc1c(C#N)c(O)n(CCO)c(=O)c1N=Nc1ccc2c(c1)COC2=O	98	nt	i	0.68	nt	nt	nt
O=C(CSc1nnc(CNC(=O)c2c(F)cccc2Cl)o1)Nc1ccccc1	115	-1.9	nt	nt	-5	-25	85
Cc1nn(-c2cccc([N+](=O)[O-])c2)c(N)c1-c1ccccc1	103	nt	i	0.88	5	48	41
C=CCNC(=O)C1CCN(c2nc(C)cc(-c3ccccc3)n2)CC1	103	-0.8	i	0.96	-4	49	121
O=C(NCCCn1ccnc1)c1nn2c(C(F)(F)F)cc(-c3ccccc3)nc2c1Cl	96	nt	i	0.83	4	nt	nt
COc1ccc(CN(CC(=O)NCC2CCCO2)C(=O)CCC(=O)Nc2cc(C)on2)cc1 (stereo unspecified)	89	-1.0	i	1	-4	58	111
CC(C)c1nc2sc3c(NCc4ccccc4)ncnc3c2c2c1COC(C)(C)C2	101	1.2	i	0.91	-7	-26	110
CCC(=O)N1CCN(c2ccc(NC(=O)COc3ccccc3[N+](=O)[O-])cc2)CC1	106	nt	i	0.9	-3	nt	nt
CCOc1ccc(N(CC(=O)Nc2ccc(C)c(C)c2)S(=O)(=O)c2c(C)[nH]c(=O)[nH]c2=O)cc1	101	nt	i	1	nt	nt	nt
CC(C)Cc1nc2sc3c(SCC(N)=O)ncnc3c2c2c1CCC2	115	nt	i	0.91	nt	nt	nt
O=C(CCn1c(=O)c2ccccc2n(CC(=O)NC2CCCC2)c1=O)NCCc1ccc(Cl)cc1	96	-1.4	i	0.96	-10	-43	93
COc1ccccc1-c1csc(Cc2nnc3n2CCCCC3)n1	124	-2.1	i	0.9	0	5	98
C(=N\n1cnnc1)/c1ccc2c(c1)OCCO2	103	-1.4	i	0.77	-19	47	117
OCCOCCNc1ncnc2nc[nH]c12	104	-0.8	i	1.1	-8	nt	nt
CCn1c(C)c(C(C)=O)c(N2CCN(C(c3ccccc3)c3ccccc3)CC2)nc1=S	99	nt	i	1.2	-3	-25	116
N#CC1=C(N)SC(N)=C(C#N)C1c1ccoc1	105	-1.4	i	1.3	6	0	133
